Compound activity as filed in PubChem.
LANA-H2B inh: blocks KSHV LANA binding to histone H2A/H2B; cell-free LANA-H2A/H2B peptide, fluorescence polarization; AID 2629; inhibition, % (concentration not given with the values); Q9QR71; actives 0.6% (n = 320,000); in the data active = inhibition mostly above about 10%, no sharp cut-off; inactive = mostly below about 6.7%;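 note: stock transfer was 7.5 nL into about 10 µL; 0% = median of vehicle wells and 100% = median of positive control wells; one replicate is shown; the record names a cut of 25% in any replicate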
Target sequence (Q9QR71 whole entry, looked up): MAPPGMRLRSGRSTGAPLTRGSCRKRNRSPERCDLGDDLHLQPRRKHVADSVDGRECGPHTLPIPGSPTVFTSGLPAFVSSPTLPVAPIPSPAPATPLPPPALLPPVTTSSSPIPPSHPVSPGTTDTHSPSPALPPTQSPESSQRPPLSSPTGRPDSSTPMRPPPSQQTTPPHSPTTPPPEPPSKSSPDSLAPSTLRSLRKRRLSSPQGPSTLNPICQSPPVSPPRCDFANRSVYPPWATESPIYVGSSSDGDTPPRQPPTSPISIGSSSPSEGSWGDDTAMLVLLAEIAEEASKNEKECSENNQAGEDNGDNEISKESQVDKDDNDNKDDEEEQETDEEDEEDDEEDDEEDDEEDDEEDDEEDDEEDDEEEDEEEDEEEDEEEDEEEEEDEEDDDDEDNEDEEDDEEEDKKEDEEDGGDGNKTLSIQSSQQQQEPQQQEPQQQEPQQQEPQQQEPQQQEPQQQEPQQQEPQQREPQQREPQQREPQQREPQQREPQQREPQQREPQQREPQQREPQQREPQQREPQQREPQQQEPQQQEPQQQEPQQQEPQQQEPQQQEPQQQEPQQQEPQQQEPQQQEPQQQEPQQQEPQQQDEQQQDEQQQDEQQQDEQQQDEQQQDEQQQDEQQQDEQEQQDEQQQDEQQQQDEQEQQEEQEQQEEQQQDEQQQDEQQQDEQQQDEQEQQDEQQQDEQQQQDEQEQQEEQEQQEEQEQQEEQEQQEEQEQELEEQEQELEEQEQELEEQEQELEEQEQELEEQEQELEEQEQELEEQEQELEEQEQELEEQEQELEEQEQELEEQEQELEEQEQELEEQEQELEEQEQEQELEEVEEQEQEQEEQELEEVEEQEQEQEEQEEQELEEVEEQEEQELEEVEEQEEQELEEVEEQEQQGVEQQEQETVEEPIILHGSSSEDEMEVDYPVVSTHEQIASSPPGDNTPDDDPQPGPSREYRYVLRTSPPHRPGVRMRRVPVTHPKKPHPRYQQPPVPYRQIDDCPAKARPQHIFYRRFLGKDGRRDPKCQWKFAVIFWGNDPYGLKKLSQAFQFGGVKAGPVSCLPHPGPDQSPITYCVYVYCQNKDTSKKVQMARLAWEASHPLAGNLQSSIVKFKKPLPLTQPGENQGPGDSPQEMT
ALR H2O2 inh: inhibitors of human sulfhydryl oxidase ALR; purified ALR, DTT oxidation, H2O2 HRP-luminol luminescence; actives 3.8% (n = 290,000); P55789; inhibition, % (test concentration not listed);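 active = mean and each replicate at 75% or more; inconclusive = only one of the two met; inactive = neither met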;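 note: stock transfer was 7.5 nL into about 7.5 µL; 0% = neutral wells and 100% = wells with inactivated enzyme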
Vif A3G: HIV-1 Vif–A3G interaction blockers – biochemical, TR-FRET, GST-Vif 1-94, biotin-A3G peptide, dose response retest, primary screen (AID 1117319); TR-FRET GST-Vif / biotin-A3G peptide binding; higher % means a stronger effect; test concentration not given here; strong numbers were not always called active; inhibition, %; hits with a dose series show IC50 in µM; actives 0.57% (n = 260,000);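 active = above the screen mean plus three standard deviations and confirmed in dose response; inconclusive = results disagree or hit not tested in dose response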;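 note: Vif residues 1-94 fused to GST binding biotinylated APOBEC3G peptide 110-148; 0% = full assay without inhibitor and 100% = GST in place of GST-Vif; retest series ran down from 100 µM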
HNF4A DNA FP: change in binding of human HNF4 alpha to DNA. P41235. HNF4a-FITC DNA binding, fluorescence polarization, 1 h. activity change, % at 10 µM. actives 0.3% (n = 360,000). AID 1224865; in the data active = activity change above about 30%, passing the limit was not always enough;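 note: controls were the assay level and a saturating level of protein; the project sought stronger binding though the title names inhibitors; some compounds called inactive have numbers as strong as hits; positive values seem to mean higher polarization but the record does not say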
Calb FLC: C. albicans growth modulation with fluconazole. actives 0.57% (n = 300,000). C. albicans CaCi-2 (fluconazole-resistant clinical isolate) + fluconazole, Alamar Blue growth, 48 h. growth inhibition, % (concentration not given with the values). AID 1979;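 active = most replicates above 75%; inconclusive = exactly half above 75%; inactive = most below 75%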;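 note: all wells also contain fluconazole at 8 µg/ml as a sub-toxic cotreatment; 0% = median of DMSO wells and 100% = median of geldanamycin control wells; wells of about 8 µL received 7.5 nL stock; the first replicate is given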
RanGTP-Impb inh: inhibitors of RanGTP-importin-beta interaction, primary screen, biochemical, FRET, CFP-Ran, YFP-importin-beta, homogeneous; AID 2216; inhibition, % (no concentration beside the values); actives 1.1% (n = 300,000); cell-free CFP-Ran/YFP-importin-beta FRET ratio;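 active = most replicates above 15%; inconclusive = exactly half above 15%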;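 note: 0% = DMSO wells and 100% = Ran loaded with GDP instead of GTP; wells of about 40 µL received 100 nL stock; the first replicate is given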
Beta2AR agonist: human beta-2 adrenergic receptor agonism by FAP; P07550; Am2.2-beta2AR cells, FAP receptor internalization, flow cytometry; reference of the scale not given here; response, % (test concentration not listed); actives 0.43% (n = 340,000); AID 504454;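 active = response above a set limit, near 3 SD of response in nonfluorescent compounds, cut at about 42% in these data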;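 note: stock transfer was 100 nL into about 11 µL; a reference agonist was the positive control; negative values mostly stem from fluorescent compounds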
Starred values were filed as active, the others as inactive; ? = inconclusive; . = no result given.

SMILES | LANA-H2B inh | ALR H2O2 inh | Vif A3G | HNF4A DNA FP | Calb FLC | RanGTP-Impb inh | Beta2AR agonist
COC(=O)C1=C(SC)N(c2ccccc2)C(c2ccccc2)CC1=O (stereo not given) | 20 | 1 | . | -1.2 | 7 | 7.6 | -8
Cc1ccccc1N1CC(C(=O)NC2CCCC2)CC1=O (stereo not given) | 6.0 | -1 | . | -0.4 | 9 | 0.0 | 4
CCOCCN(C(=O)c1ccccc1Cl)c1cccc(C)c1C | -1.0 | . | -2% | -1.5 | -7 | 0.9 | -1
CCCc1c(C(=O)NNc2cc(C(F)(F)F)ccc2Cl)cnn1-c1ccccc1 | 2.8 | -5 | -3% | 1.9 | -1 | 2.0 | -4
CCOC(=O)C[C@H]1c2ccc(C(F)(F)F)cc2S(=O)(=O)N1C1CCCC1 | 1.0 | . | . | 0.4 | 0 | 5.3 | -11
COc1ccc(CC(=O)Nc2ccccc2N2CCOCC2)cc1OC | -2.3 | -3 | -5% | 4.8 | 22 | -1.5 | 7
COc1ccc(C2=NO[C@@H]3C(=O)N(c4ccc5c(c4)OCCO5)C(=O)[C@H]23)cc1OC | 2.1 | -23 | -1% | 3.4 | 11 | -5.1 | -3
S=C(NCc1ccc(Cl)c(Cl)c1)NCc1ccco1 | 0.7 | 2 | . | 2.0 | -18 | 0.6 | -8
COC(=O)c1ccc(CSc2nc3scc(-c4cccs4)c3c(=O)[nH]2)o1 | -1.6 | -14 | 25% | -4.7 | 47 | 1.4 | 9
COc1cc2c(cc1OC)-c1nnc(C)n1C(C)(C)C2 | 1.6 | 5 | 0% | 1.3 | 3 | . | -4
CC(OC(=O)c1ccc(=O)n(Cc2ccccc2)n1)C(=O)Nc1cccc(Cl)c1 (stereo not given) | -3.7 | 0 | 1% | 0.3 | -8 | 3.4 | -6
CC(C)(C)OC(=O)[C@H](Cc1ccccc1)NC(=O)c1nc[nH]c1C(=O)NCc1ccccc1 | -3.6 | . | -2% | 1.8 | 9 | 1.5 | -1
CCOC(=O)[C@H]1[C@H]2COc3ccccc3[C@@H]2N2C(=O)c3cc(Cl)ccc3NC(=O)[C@@]12C | -1.9 | . | . | 1.9 | . | . | 10
O=C(CSc1nc(=O)n2ccccc2n1)NCc1ccc(F)cc1 | 3.9 | -1 | -5% | -0.9 | 4 | -3.6 | 6
COC(=O)C(Cc1ccccc1)NC(=O)C12CC3CC(CC(C3)C1)C2 (stereo not given) | -1.2 | . | . | 2.7 | 2 | 7.1 | 17
OCCN(C=NC1=NN(c2cccc(C(F)(F)F)c2)CC1)CCO | 2.6 | . | 2% | -1.8 | -34 | -0.5 | 0
COc1cccc(-c2c(-c3cc(OC)cc(OC)c3)n(C)c3ccc(Br)cc23)c1 | -2.3 | -1 | . | 11 | . | . | 0
COC(=O)c1ccccc1NC(=O)C12CC3CC(C1)CC(n1cnc(Cl)n1)(C3)C2 | 2.6 | -2 | 3% | 0.0 | 2 | -2.5 | -7
N/C(=N\c1nc2ccccc2o1)NC(=O)c1ccccc1Br | -5.2 | . | . | -0.3 | -4 | -0.6 | 12
CCc1c(C)nc2ccc(Br)cc2c1SCCC#N | 6.3 | 2 | -4% | 2.1 | -21 | -1.7 | -7
COc1ccccc1C(=O)Nc1c(C)cc(Br)cc1C | 5.1 | -1 | 11% | 1.5 | 37 | ? | 4
C=CC[C@@H](CC(=O)N[C@@H](CO)Cc1ccccc1)C(=O)N[C@@H](C)COC(=O)[C@@H](CC=C)Cc1ccc(F)cc1 | 16 | 2 | . | 1.7 | . | . | -8
COc1ccc(OC)c(/C=N/Nc2cc(C)nc(N3CCOCC3)n2)c1 | 1.1 | 2 | 5% | 2.0 | -4 | -3.0 | -4
O=S(=O)(NCc1ccncc1)c1ccc(Br)s1 | -2.2 | 1 | 0% | 0.0 | 10 | 3.6 | -2
Oc1ccc(Cc2ncc(C(F)(F)F)cc2Cl)cc1 | -4.6 | -10 | -1% | -1.3 | 44 | 1.1 | -8

Record cards, as listed above:
`O=C(CSc1nc(=O)n2ccccc2n1)NCc1ccc(F)cc1` across the screens: LANA-H2B inh: 3.9; ALR H2O2 inh: -1; Vif A3G: -5%; HNF4A DNA FP: -0.9; Calb FLC: 4; RanGTP-Impb inh: -3.6; Beta2AR agonist: 6
`S=C(NCc1ccc(Cl)c(Cl)c1)NCc1ccco1` across the screens: LANA-H2B inh: 0.7; ALR H2O2 inh: 2; Vif A3G: .; HNF4A DNA FP: 2.0; Calb FLC: -18; RanGTP-Impb inh: 0.6; Beta2AR agonist: -8

(continued)
SMILES | LANA-H2B inh | ALR H2O2 inh | Vif A3G | HNF4A DNA FP | Calb FLC | RanGTP-Impb inh | Beta2AR agonist
COC(=O)C[C@H]1c2cc(F)ccc2S(=O)(=O)N1c1ccc(N(C)C)cc1 | 1.0 | 99* | . | -0.6 | -5 | 2.1 | 1
Cc1ccc(C)c(NC(=O)CCC(=O)NNC(=O)COc2cc(C)ccc2C)c1 | 1.8 | -3 | . | 1.6 | 26 | 0.6 | 1
COC(=O)CC1(CC(N)=O)SCCS1 | . | . | 3% | 4.8 | . | . | 0
Cc1nc(CNS(=O)(=O)c2ccc3c(c2)OCCO3)cs1 | -2.0 | 0 | 1% | 0.6 | 3 | -3.5 | -2
CC(=O)NC(=S)Nc1ccc(NC(=O)c2cccnc2Cl)cc1 | -3.8 | -7 | . | 5.0 | 6 | 2.7 | 0
COc1cc(/C=N/NC(=O)C[n+]2ccccc2)cc(OC)c1OC | 4.9 | -1 | 8% | 2.4 | -6 | 0.2 | 1
CC(=O)c1cnc(Nc2nc(C)c3ccccc3n2)nc1C | 2.6 | -16 | 2% | . | 1 | -0.5 | .
COc1ccccc1Nc1nnc(SCC(=O)N2CCCC2)s1 | -5.6 | . | 9% | -0.5 | 25 | -2.6 | 2
CC/C(=N/NS(=O)(=O)c1ccc(Cl)cc1)c1ccc(O)cc1 | -5.3 | 5 | -10% | -0.5 | -4 | -0.6 | -2
COc1ccc(OC)c(C(=O)c2c(C)oc3cc(Br)c(O)c(CN(C)C)c23)c1 | 1.7 | -9 | . | -1.2 | 9 | -3.3 | 7
Cc1nnc(SCC(=O)N2CC(=O)Nc3ccccc32)s1 | -2.8 | . | 3% | -2.7 | -12 | -3.5 | -8
c1ccc(Nc2ncnc3c2oc2ccccc23)cc1 | -1.4 | -18 | -3% | 1.7 | 1 | 2.9 | -9
OC(CN1CCC(Cc2ccccc2)CC1)C(F)(F)F (stereo not given) | 0.3 | . | -10% | -0.7 | 9 | -1.5 | 18
O=C(N/N=C\c1ccncc1)c1ccc(Cl)s1 | 16 | -1 | 7% | 6.3 | 8 | -3.5 | 6
COc1ccccc1-n1cnnc1SCC(=O)NC1CCS(=O)(=O)C1 (stereo not given) | 3.2 | -9 | . | -5.5 | 17 | -0.9 | 3
CC(C)CC(=O)Nc1cccc(-c2nc3ccccc3o2)c1 | 2.2 | -4 | -8% | -3.7 | -6 | -1.2 | -15
Cc1cc(C)nc(SCC(=O)Nc2ccc(S(=O)(=O)NCCO)cc2)n1 | . | . | -3% | 0.1 | -23 | 5.2 | 2
Cc1ccc(NC(=O)CCC(=O)NNC(=O)COc2ccccc2)cc1C | 1.2 | -2 | 2% | 2.0 | -4 | -2.1 | 2
CCOC(=O)NC1(NC(C)C)Oc2ccccc2O1 | 3.6 | -7 | ? | -1.5 | 4 | 3.3 | -1
O=C(NS(=O)(=O)NC1CCCCC1)C1=C(N2CCCC2)COC1=O | -2.5 | 8 | . | 11 | . | . | 0
CCOc1ncccc1C(=O)OCC(=O)Nc1cc(C(C)(C)C)ccc1OC | -0.2 | 2 | . | -0.8 | . | . | 2
COc1ccc(N2CCN(C(=O)Cc3ncc(C(F)(F)F)cc3Cl)CC2)cc1 | 11 | 36 | 7% | -1.2 | -5 | -1.3 | -7
Cc1ccc(S(=O)(=O)c2cc(O)ccc2O)cc1C | 5.8 | 0 | 21% | 0.2 | 13 | 2.5 | 4
CCN(CC)C(=O)C1CCCN(C/C=C/c2ccccc2[N+](=O)[O-])C1 (stereo not given) | 2.3 | -4 | -2% | 3.7 | -20 | -1.0 | -8
CCCCOc1ccccc1C(=O)N(Cc1ccco1)C1CCS(=O)(=O)C1 (stereo not given) | 0.7 | 0 | . | 4.0 | . | 1.7 | 0

Continued:
SMILES | LANA-H2B inh | ALR H2O2 inh | Vif A3G | HNF4A DNA FP | Calb FLC | RanGTP-Impb inh | Beta2AR agonist
NC(c1ccccc1)c1ccncc1 (stereo not given) | 0.2 | -3 | . | 0.1 | 0 | -1.5 | 1
Cc1cc(-c2ccccc2)c(C#N)c(N)n1 | -1.0 | -8 | -1% | -2.2 | -10 | 2.2 | 0
CN(C)c1nc(N)c2ncc(=S)[nH]c2n1 | 4.7 | 13 | -16% | -0.6 | 10 | -4.4 | -6
CC(=O)Nc1cc(S(=O)(=O)Nc2ccc(C)cc2)c(C)cc1C | -0.9 | 20 | 16% | -1.7 | -7 | 1.6 | 2
CN1CCN(/N=C/c2ccc(N(c3ccccc3)c3ccccc3)cc2)CC1 | -1.4 | 96* | -1% | 3.3 | 4 | 0.7 | 16
COc1cc2c(cc1OC)C(C)N(C(=O)C1=NN(c3cccc(C)c3)C(=O)CC1)CC2 (stereo not given) | 2.6 | -10 | . | 2.8 | 4 | 1.1 | 4
Cc1cc(C)c(NC(=O)C2CC(=O)N(C3CCCC3)C2)c(C)c1 (stereo not given) | -2.3 | -2 | . | 0.6 | . | . | -5
COC(=O)c1cc(S(=O)(=O)NCc2ccc3c(c2)OCO3)cn1C | 0.2 | 4 | . | -0.1 | -4 | 1.2 | -3
COc1ccc(S(=O)(=O)n2nc(OC(=O)c3c(-c4ccccc4Cl)noc3C)cc2N)cc1 | -2.3 | 2 | ? | 8.8 | -2 | 1.5 | 10
O=S(=O)(N[C@@H]1C[C@H]2CC[C@@H]1C2)c1cccs1 | -0.4 | -37 | 6% | -0.9 | -30 | 2.5 | -1
COc1ccc(/C=N/S(=O)(=O)CCc2ccccc2)c(OC)c1 | . | . | -3% | -0.9 | -12 | 1.8 | 1
COc1ccc(C(C)=O)cc1CSc1nc2ccccc2c(=O)n1-c1cccc(C)c1 | -1.3 | -6 | -18% | 1.7 | -1 | -4.6 | -19
O=C(COc1ccc(Br)cc1Cl)NC(=O)NC1CCCC1 | 5.9 | . | -13% | -2.6 | . | . | 1
CO/N=C/C1CCN(c2ncc(C(F)(F)F)cc2Cl)C1=O (stereo not given) | -0.9 | -3 | . | -0.7 | ? | 12 | -2

4 entries out of the list, arranged by SMILES length, lowest first:
SMILES | LANA-H2B inh | ALR H2O2 inh | Vif A3G | HNF4A DNA FP | Calb FLC | RanGTP-Impb inh | Beta2AR agonist
Cc1cc(-c2ccccc2)c(C#N)c(N)n1 | -1.0 | -8 | -1% | -2.2 | -10 | 2.2 | 0
CN(C)c1nc(N)c2ncc(=S)[nH]c2n1 | 4.7 | 13 | -16% | -0.6 | 10 | -4.4 | -6
O=S(=O)(N[C@@H]1C[C@H]2CC[C@@H]1C2)c1cccs1 | -0.4 | -37 | 6% | -0.9 | -30 | 2.5 | -1
COc1cc2c(cc1OC)C(C)N(C(=O)C1=NN(c3cccc(C)c3)C(=O)CC1)CC2 (stereo not given) | 2.6 | -10 | . | 2.8 | 4 | 1.1 | 4
